Compound activity as filed in PubChem.
YjeE inh – inhibitors of E. coli YjeE (TsaE). P0AF67. purified YjeE, fluorescence polarisation of a bound ADP probe. Potency, µM. 71,000 tested, 0.05% active. AID 605; active = well fitted falling curve; inconclusive = weaker or top-dose-only fall, or a rising curve; inactive = flat or poorly fitted curve;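 note: top concentration of the series not given in the record; excess ADP was the control for the full effect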
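Purified YjeE (10 uM) with BODIPY Texas Red-labeled ADP probe (2 uM); compounds pin-transferred, 15 min at room temperature. Binding inhibition read as decreased fluorescence polarization; ADP titration as control.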
PK Bst – modulators of Bacillus stearothermophilus pyruvate kinase. 51,000 tested, 1.2% active. partly purified Bacillus stearothermophilus pyruvate kinase, luminescence ATP production; ribose 5-phosphate activator present at AC10. AID 361. Potency, µM; in the data active means potency below about 11 µM; inconclusive means mostly about 12 µM to 25 µM; inactive means weaker than that;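 the screen sought inhibitors and activators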;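 note: potency is the fitted concentration of half-maximal effect; scaled between full activation by ribose 5 phosphate and full inhibition by luteolin; about four in five hits inhibit and the cells do not say which; series up to 57 µM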
The depositor's hits bear a star; i = inactive; ? = inconclusive; · = no result given. An excerpt; count on the stated rates, not on these rows.

SMILES | YjeE inh | PK Bst
N#CCCN(C(=O)Nc1ccc(Cl)cc1)c1ccccc1 | i | >57
CC1=Nn2c(nnc2-c2n[nH]c3c2CCC3)SC1 | i | >57
Cc1ccc2c(c1)C(N1CCN(C)CC1)=Nc1cccnc1N2 | i | ·
CCOC(=O)C1CCN(c2c(NCCCN3CCN(Cc4ccccc4)CC3)c(=O)c2=O)CC1 | i | >57
COc1cc(CC(=O)N2CCc3ccccc32)cc(OC)c1OC | i | >57
Cc1cccc(-n2cnc3c(c2=O)c2nc4ccccc4nc2n3Cc2ccco2)c1 | i | >57
CCCCNc1cc(C)nc(NCc2ccccc2)n1 | i | >57
CCOc1ccc2ccccc2c1C(=O)N1CCOCC1 | i | >57
CCCn1c2c(c(O)c(C(=O)Nc3nccs3)c1=O)CCCC2 | i | >57
O=C(c1ccccc1)c1ccc(OC(=O)N2CCOCC2)cc1 | i | ·
Cn1ccnc1SCC(=O)NC1CCCCC1 | i | >57
Cn1c(=O)c(-c2cccs2)nc2cncnc21 | i | ·
Cc1ccc(S(=O)(=O)Nc2ccc3c(c2)nc2n3CCN(Cc3ccccc3)C2)cc1 | i | i
Cc1cccc(NC(=O)CSc2nnc(-c3ccco3)o2)c1C | i | >57
CNC(=O)C1(C)C=CCN1C(=O)OC (stereo not drawn) | i | ·
COCCn1c(=O)c(-c2ccc(Cl)cc2)nc2cnc(N(C)C)nc21 | i | ·
O=C(c1ccco1)N1CCN(C(c2ccc(F)cc2)c2nnnn2Cc2cccs2)CC1 (stereo not drawn) | i | >57
COc1ccccc1NC(=O)c1ccc(S(=O)(=O)N(C)C)cc1 | i | ·
CCC(Oc1ccccc1)C(=O)Nc1ccccn1 (stereo not drawn) | i | ·
COc1ccc(NC(=O)NCCCN2CCc3ccccc3C2)cc1 | i | ·
CC(=O)Cn1c(N2CCC(Cc3ccccc3)CC2)nc2c1c(=O)[nH]c(=O)n2C | i | >57
O=C(NCCCn1ccnc1)c1cnn2c1NC(c1ccccc1)CC2C(F)(F)F (stereo not drawn) | ? | >57
COc1ccc2c(c1OC)C(=O)OC2C1c2c(cc3c(c2OC)OCO3)CCN1C (stereo not drawn) | i | >26
COc1ccc(OC(C)C(=O)N2CCN(c3ccccn3)CC2)cc1 (stereo not drawn) | i | >57
Cc1cccc(Cn2c(=O)n(Cc3ccco3)c(=O)c3ccccc32)c1 | i | >57
O=C(Nc1cccc(F)c1)N1CCCC2(CCN(C(=O)c3ccco3)CC2)C1 | i | ·
c1ccc(-c2cn3cccnc3n2)cc1 | i | ·
O=C(CSc1nc2ccccc2c(=O)n1Cc1ccco1)c1ccc(F)cc1 | i | >57
Cc1nc2ccc(Nc3nc4cc(S(=O)(=O)N5CCOCC5)ccc4o3)cc2s1 | i | ·
O=C(Nc1ccccc1C(F)(F)F)C1CC(=O)N(c2ccccc2F)C1 (stereo not drawn) | i | >57

Looked up one by one from above (seven):
SMILES | YjeE inh | PK Bst
Cc1cccc(NC(=O)CSc2nnc(-c3ccco3)o2)c1C | i | >57
Cc1ccc(S(=O)(=O)Nc2ccc3c(c2)nc2n3CCN(Cc3ccccc3)C2)cc1 | i | i
O=C(c1ccco1)N1CCN(C(c2ccc(F)cc2)c2nnnn2Cc2cccs2)CC1 (stereo not drawn) | i | >57
CCOc1ccc2ccccc2c1C(=O)N1CCOCC1 | i | >57
Cn1ccnc1SCC(=O)NC1CCCCC1 | i | >57
CC1=Nn2c(nnc2-c2n[nH]c3c2CCC3)SC1 | i | >57
COc1ccc(NC(=O)NCCCN2CCc3ccccc3C2)cc1 | i | ·

The list continues.
SMILES | YjeE inh | PK Bst
COC(=O)c1cc(CSc2nc3ccc(C)cc3[nH]2)oc1C | i | >57
O=C(Nc1ccccc1)N1CC=C(c2ccccc2)CC1 | i | ·
CC(=O)N1C(=O)c2cccc3cccc(c23)C(=O)N1C(C)=O | i | >57
CCOC(=O)c1c(C)c(C(=O)NCCN2CCOCC2)c(C)n1C | i | >57
COC(=O)c1ccc(COc2ncnc3c(Cl)cc(Cl)cc23)o1 | i | ?
Cc1cc(C)n(C(CC(=O)N2CCc3ccccc3C2)C(=O)O)n1 (stereo not drawn) | i | ·
CCCCS(=O)(=O)NC1=NCN(Cc2ccco2)CN1 | i | >57
CCN(CC)CCOC(=O)c1ccc(NC(=O)CCNC(=O)Cn2ccc3ccccc3c2=O)cc1 | i | >57
Cc1[nH]nc2c1C(=O)CC(C)(C)C2 | i | ·
CCCn1c(SCC(=O)NCCc2ccccc2)nnc1-c1ccccn1 | i | >57
O=C(NCCO)C1CCN(S(=O)(=O)c2ccc(F)cc2)CC1 | i | >57
O=C1OC(NC(=O)c2ccccc2)C(n2cc(CO)nn2)=C1Cl (stereo not drawn) | i | >57
O=C(N1CCCCCC1)N1CCN(C(=O)N2CCOCC2)CC1 | i | >57
Cc1ccc(Cn2c(SCC(C)C)nc3c2c(=O)n(C)c(=O)n3C)cc1 | i | >57
COc1ccc(-c2nc(CSCC(=O)NCC3CCCO3)c(C)o2)cc1OC (stereo not drawn) | i | >57
COc1ccc(C2C(C(=O)Nc3cccc(C)n3)c3ccccc3C(=O)N2C)cc1 (stereo not drawn) | i | ·
O=C(CSc1nnnn1-c1ccc(F)cc1)NC1CCCCC1 | i | >57
CC(C)OCCCNC(=O)c1ccc2c(c1)ncn2C1CCCC1 | i | ·
Cc1cc(C)nc(NC(=O)c2ccc(OC(C)C)cc2)n1 | · | >26
Cc1nc2ncnn2c(C)c1CCC(=O)NC(C)CCc1ccco1 (stereo not drawn) | i | >57
CC1(C)CC(=O)CC(C)(C)N1OC(=O)c1ccccn1 | i | >57
NC(=O)c1oc2ccccc2c1NC(=O)c1ccco1 | i | ·
CN(C)c1ncc2nc(-c3ccc(Cl)cc3)c(=O)n(Cc3ccc(F)cc3)c2n1 | i | ·
COCCCNC(=O)c1c(N)n(/N=C/c2cccnc2)c2nc3ccccc3nc12 | · | >26
CC1CCC/C(=C\Nc2ccc(O)cc2)C1=O (stereo not drawn) | i | >11
COCCNC(=O)C(c1ccccc1)N(CCOC)C(=O)Cn1nnc2ccccc21 (stereo not drawn) | i | >57
Cc1ccc(S(=O)(=O)N2CCN(C(=O)CC3CCCC3)CC2)cc1 | i | >57
COc1cccc(-c2nc(CS(=O)(=O)CC(=O)NCCC(C)C)c(C)o2)c1 | i | ·
CC1CCCCC1NC(=O)C1CCN(C(=O)c2sccc2-n2cccc2)CC1 (stereo not drawn) | i | ·
COC(=O)[C@H]1C[C@@H]1[C@H](NC(=O)c1cc(C)nn1C)c1ccccc1 | i | ·

An excerpt of these results, with values under each structure.
Every second line gives: YjeE inh	PK Bst
CC1CCC/C(=C\Nc2ccc(O)cc2)C1=O (stereo not drawn)
  i	>11
Cc1nc2ccc(Nc3nc4cc(S(=O)(=O)N5CCOCC5)ccc4o3)cc2s1
  i	·
COC(=O)c1ccc(COc2ncnc3c(Cl)cc(Cl)cc23)o1
  i	?
Cc1cccc(-n2cnc3c(c2=O)c2nc4ccccc4nc2n3Cc2ccco2)c1
  i	>57

Further structures.
SMILES | YjeE inh | PK Bst
CCCn1c(SCC(=O)NCCc2ccccc2)nnc1-c1cccnc1 | i | >57
O=C(Nc1nccs1)c1ccc(Br)o1 | i | ·
C=CCn1cnc2scc(-c3ccccc3)c2c1=O | i | ·
CCOCCCNS(=O)(=O)c1ccc2c(c1)oc(=O)n2CC(=O)OCC | i | >57
CCCCOC(=O)Cn1c(=O)oc2ccc(C)cc21 | i | ·
CN(C)c1ccc(NC(=O)Cn2ncn3c(cc4ccccc43)c2=O)cc1 | i | >57
CC1CCN(C(C(=O)Nc2ccc3c(c2)OCO3)c2ccccc2)CC1 (stereo not drawn) | i | ·
COc1cccc(C2(O)CCN(C(=O)C3CC3)CC2)c1 | i | >57
Cc1ccc2c(c1)c1c3n2CCN[C@H]3CCC1 | i | ·
O=S(c1ccsc1)c1ccsc1 | i | >57
CCOC(=O)c1ccc2nc(NC(=O)C(C)C)sc2c1 | i | ·
Nc1ccccc1S(=O)(=O)O | i | ·
COc1ccc(OC)c(NC(=O)C2CCCN(S(=O)(=O)c3c(C)noc3C)C2)c1 (stereo not drawn) | i | >57
FC(F)(F)c1ccccc1-c1nccc(-n2ccnc2)n1 | i | ·
CCOC(=O)N1CCN(S(=O)(=O)c2ccc3[nH]c(=O)sc3c2)CC1 | i | >57
CCS(=O)(=O)N1CCC(C(=O)NCc2ccco2)CC1 | i | >57
CCN(CC)C(=O)C1=C(C)NC(=O)NC1c1c(F)cccc1Cl (stereo not drawn) | i | >57
COC(=O)c1ccc(CSc2nc3c(cnn3-c3ccc(C)cc3)c(=O)[nH]2)o1 | i | >57
CC12C(=O)N(c3ccccn3)C(=O)C1C1C=CC2C1 (stereo not drawn) | i | ·
CC(=O)Nc1ccc(S(=O)(=O)NCC(C)NS(=O)(=O)c2ccc(NC(C)=O)cc2)cc1 (stereo not drawn) | i | >57
CS(=O)(=O)N1CCc2cc(C(=O)N3CCCCC3)ccc21 | i | >57
CCC(=O)Nc1cccc(-c2cn3ccsc3n2)c1 | i | i
Nc1ccc(S(=O)(=O)c2ccc(N)cc2)cc1 | i | >26
CC(C)NC(=O)[C@@H]1C[C@H]1[C@@H](NC(=O)OCc1ccccc1)c1ccccc1 | i | ·
CCCCCn1c(=NC(C)=O)c(C#N)cc2c(=O)n3ccccc3nc21 | i | >57
O=C(C1CCN(S(=O)(=O)c2cccc3nsnc23)CC1)N1CCc2ccccc2C1 | i | i
NCCC[C@@H](CC(=O)N[C@@H]1CCCC[C@H]1C(=O)N[C@H](CC(=O)N[C@@H](CCC(=O)O)CC(=O)O)Cc1c[nH]c2ccccc12)NC(=O)C[C@H](Cc1ccccc1)NC(=O)[C@@H]1CNCC[C@H]1N | i | ·
COc1cccc(N2CC(C)Cn3c2nc2c3c(=O)n(CCN3CCOCC3)c(=O)n2C)c1 (stereo not drawn) | i | >57
CCC(=O)OCC(=O)[C@@]1(OC(=O)CC)[C@H](C)C[C@@H]2[C@@H]3[C@H]([C@@H](O)C[C@@]21C)[C@]1(C)C=CC(=O)C=C1C[C@@H]3Cl | i | ·
CC(C)(C)NC1=CC(=O)OC12CCCCC2 | i | ·
COc1ccc(Oc2ncc3nc(-c4cccc(C#N)c4)c(=O)n(CCC#N)c3n2)cc1 | i | ·
Cc1ccc2cccc(S(=O)(=O)N3CCN(c4cccc(Cl)c4)CC3)c2n1 | i | ?
O=C(Cn1cnc2c(oc3ccccc32)c1=O)N1CCN(c2ccccc2)CC1 | i | >57
CC(C)Sc1nnc([C@@H]2CCCN2C(=O)OC(C)(C)C)o1 | i | >57
CCOC(=O)CSC1=C(C#N)C(c2ccccc2C)C2=C(CCCC2=O)N1 (stereo not drawn) | i | >57
CCn1c(SCC(=O)NC2CCCCC2C)nnc1-c1ccc(OC)cc1 (stereo not drawn) | · | >26
Cc1nnc(SCC(=O)c2c(N)n(C)c(=O)n(C)c2=O)[nH]c1=O | i | >57
Cc1c(C)c2cc(Cl)c(O)c(CN3CCCCC3)c2oc1=O | · | >11
CN(C)Cc1ccccc1-c1cc(Nc2ccccc2)ncn1 | i | ·
O=C1CN(C(=O)COC(=O)C23CC4CC(CC(O)(C4)C2)C3)c2ccccc2N1 | i | >57
CC(C#N)On1c(SC(C)C#N)nc2ccccc2c1=O (stereo not drawn) | i | >57
CN(C)C(=O)COn1c(SCC(=O)N(C)C)nc2ccccc2c1=O | · | >26
Cc1nc2ncnn2c(C)c1CCC(=O)O | i | >57
CCn1nnc(NC(=O)c2ccc(-c3ccc(Cl)cc3)o2)n1 | i | 6.5*
Cc1oc(-c2ccccc2F)nc1CS(=O)(=O)CC(=O)NCCCN1CCc2ccccc2C1 | i | ·

Shown with two lines to a compound: part of the list above
Fields: YjeE inh | PK Bst
CCOC(=O)C1CCN(c2c(NCCCN3CCN(Cc4ccccc4)CC3)c(=O)c2=O)CC1
    i | >57
COc1cc(CC(=O)N2CCc3ccccc32)cc(OC)c1OC
    i | >57

(further entries)
SMILES | YjeE inh | PK Bst
O=C(OCCN=C1NS(=O)(=O)c2ccccc21)C1CC(=O)N(c2ccc(Cl)cc2)C1 (stereo not drawn) | i | ·
O=C1c2ccccc2C(=O)N1CCc1nc2ccccc2c(=O)n1CCCn1ccnc1 | i | ·
O=c1cc(NCc2ccccc2)c2ccccc2o1 | i | >57
O=C(CNS(=O)(=O)c1ccc(Br)s1)N1CCC(N2CCCCC2)CC1 | i | >57
COc1ccc(/C(O)=C2/C(=O)C(=O)N(Cc3ccco3)C2c2cccs2)cc1 (stereo not drawn) | · | >26
N=c1ccccn1CC(O)COc1ccccc1 (stereo not drawn) | i | >57
CCOCCN1CCN(c2c(C)c(C)nc3cc(-c4cc(OC)cc(OC)c4)nn23)CC1 | i | >11
CCC(C)(NC(=O)c1ccc(=O)[nH]c1)C(=O)NC1CCCC1 (stereo not drawn) | i | ·
CC1Cc2ccccc2N1C(=O)CSc1nc2cc3c(cc2cc1C#N)OCO3 (stereo not drawn) | i | >57
COc1cccc(C(=O)N2CCN(Cc3ccccn3)CC2)c1OC | · | >26
CC(=O)Nc1ccc(S(=O)(=O)NCCC(=O)OCCN2C(=O)c3ccccc3C2=O)cc1 | i | >57
O=C(Nc1cccnc1)c1ccc(Br)s1 | i | >57
COc1ccc(CCNC(=O)CSC2=Nc3ccccc3C3=NC(C(C)C)C(=O)N23)cc1OC (stereo not drawn) | i | >57
CN=C(Nc1cc(C)nn1CCC#N)c1ccc(F)cc1 | i | >57
CCOC(=O)c1sc(NC(=O)c2cccnc2)nc1C | i | ·
CCOc1ccc(C(F)(F)F)cc1NC(C)=O | i | >57
CCOC(=O)/C(C#N)=C1/C=CNC(=O)N1 | i | ·
